Source: PubChem BioAssay
HSV replic up = HSV replication enhancement. actives 0.005% (n = 220,000). HSV replication augmentation in cells, fold increase. maximum fold increase;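 active means peak rise of 1.5-fold or more in the series; tested in PC3 cells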;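 further: first round at 10 µM; read as green reporter fluorescence; hits show the peak of a series up to 25 µM; 1 = signal of infected wells without compound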
RGS16-Gao = RGS16-Galphao interaction regulator (human). O15492+P09471. bead-based flow cytometry RGS16-Galphao binding, fluorescence; actives lie on both sides. binding response (% of control), % at 10 µM. actives 0.38% (n = 220,000). AID 1441;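 active means below 25% or above 175%, edge rows of some plates excepted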;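 further: Galphao activated by GDP with aluminum fluoride before binding; 100% = wells without compound and 0% = beads without RGS; some results beyond the cut were filed as inactive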
Target sequence (O15492 whole entry, looked up): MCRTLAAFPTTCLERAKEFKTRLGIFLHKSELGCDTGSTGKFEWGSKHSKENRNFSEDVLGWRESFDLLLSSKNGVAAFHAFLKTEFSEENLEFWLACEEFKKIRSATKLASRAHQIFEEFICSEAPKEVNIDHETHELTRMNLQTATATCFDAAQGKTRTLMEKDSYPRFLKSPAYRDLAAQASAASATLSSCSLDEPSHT
Target sequence (P09471 whole entry, looked up): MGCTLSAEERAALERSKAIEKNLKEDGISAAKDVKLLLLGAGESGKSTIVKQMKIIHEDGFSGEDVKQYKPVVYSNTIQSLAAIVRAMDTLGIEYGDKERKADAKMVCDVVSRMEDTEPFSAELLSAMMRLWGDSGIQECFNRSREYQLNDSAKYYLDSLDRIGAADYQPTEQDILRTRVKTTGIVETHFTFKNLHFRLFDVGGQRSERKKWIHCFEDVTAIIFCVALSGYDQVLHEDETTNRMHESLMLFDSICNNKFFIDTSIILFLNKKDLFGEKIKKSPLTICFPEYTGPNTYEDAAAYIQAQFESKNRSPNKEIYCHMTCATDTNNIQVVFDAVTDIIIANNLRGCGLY
Insulin prom inh = TRM-6 insulin promoter activity inhibition. TRM-6 cells (human fetal islet line), insulin promoter-eGFP reporter, imaging; reporter expression induced with tamoxifen. inhibition, % at 2 µM. actives 0.9% (n = 130,000);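 active means inhibition above the mean plus 3 SD, with well images judged a real hit on visual review, cut at about 60% in these data, passing the limit was not always enough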
PKD1 inh = PKD1 (human) kinase inhibition | inhibition, %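 (about 10 µM by stock and volumes)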 | Q15139 | PKD1 kinase fluorescence polarization assay | actives 0.056% (n = 200,000);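 active means inhibition of 50% or more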;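 further: controls were vehicle for no effect and a reference inhibitor for full effect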
GALR2 agonist = GALR2 (human) receptor agonism; O43603; GALR2-expressing cells, agonist activation read-out; activation, %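 (tested at 5 µM)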; actives 0.48% (n = 140,000); AID 803;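 active means above mean plus 3 SD of all compounds, about 5% in these data, not always enough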;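 further: 0% = vehicle buffer wells and 100% = reference agonist at full effect; tested in CHO reporter cells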
Target sequence (O43603 whole entry, looked up): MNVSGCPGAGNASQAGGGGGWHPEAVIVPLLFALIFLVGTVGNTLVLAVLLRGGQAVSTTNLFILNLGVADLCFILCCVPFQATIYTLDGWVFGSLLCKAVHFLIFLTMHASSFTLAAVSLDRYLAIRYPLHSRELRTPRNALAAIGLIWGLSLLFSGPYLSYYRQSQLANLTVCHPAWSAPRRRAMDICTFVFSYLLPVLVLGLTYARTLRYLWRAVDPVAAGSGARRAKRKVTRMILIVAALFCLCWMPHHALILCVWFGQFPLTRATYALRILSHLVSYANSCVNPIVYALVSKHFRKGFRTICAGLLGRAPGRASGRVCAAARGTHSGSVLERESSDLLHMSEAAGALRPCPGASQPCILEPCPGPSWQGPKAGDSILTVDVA
Insulin prom inh cell count = second read-out of Insulin prom inh, no call of its own (marks repeat the call); normalized cell count, %; measured here: cell count, toxicity; reference of the scale not given here;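 cells exposed to compound for 48 h; stained nuclei by imaging scaled within each plate; lower means fewer cells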
HSV replic up primary fold = also measured in HSV replic up; calls as there; fold increase; compound at 10 µM; measured here: primary screen fold increase 10 uM; tested in PC3 cells;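 GFP signal in the first replicate; 1 = infected wells without compound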
The depositor's hits bear a star; i = inactive; / = not tested or not shown; [ ] = dose if it differs, or a comment.

Values run as follows: HSV replic up, HSV replic up primary fold, RGS16-Gao, Insulin prom inh, Insulin prom inh cell count, PKD1 inh, GALR2 agonist
1	Cc1ccc(NC(=O)/C(=C/c2cccc([N+](=O)[O-])c2)NC(=O)C2CCCCC2)c(C)c1
    i, 0.88, 87, -63, 207, -4, -1.4
2	O=C(CN1C(=O)C2C3C=CC(C3)C2C1=O)Nc1cccc2c1CCCC2 (configuration not stated)
    i, 0.85, 111, 12, 63, 4, -2.6
3	CCOC(=O)c1cccc(S(=O)(=O)N2CCOCC2)c1
    i, 0.99, 97, /, /, 3, /
4	Cc1ccc(OCCOCCN2CCCCC2)c([N+](=O)[O-])c1
    i, 0.99, 157, /, /, -4, /
5	O=C1NN(c2ccc(F)cc2)C(=O)/C1=C\c1cnn(-c2ccccc2)c1
    i, 0.93, 106, /, /, -14, /
6	CCOC(=O)C1C(c2cccs2)NC(=O)NC1(O)C(F)(F)F (configuration not stated)
    i, 0.75, 99, -25, 136, -6, -1.4
7	CC(C)C(=O)Nc1nnc(Sc2ccc(N(C)C)cc2)s1
    i, 0.98, 112, -8, 115, 0, 0.0
8	Nc1ncc(-n2cncn2)c(-c2ccccc2)n1
    i, 0.99, 101, 11, 70, 2, /
9	CCOc1ccc(NC(=S)NCCCn2ccnc2)cc1
    i, 1.2, 132, 0, 74, -17, -0.3
10	O=C(O)CCN1C(=O)/C(=C\c2cccc(OCC(=O)Nc3ccc(Cl)cc3)c2)SC1=S
    i, 0.97, 98, /, /, /, /
11	CC(C)OC(=O)c1nnn(-c2nonc2N)c1CN1CCc2ccccc2C1
    /, /, 101, /, /, -5, -0.9
12	NS(=O)(=O)c1ccc(-n2cccc2C=O)cc1
    i, 0.99, 103, /, /, -2, /
13	CCOc1ccc(NC(=O)CSc2nnc(Cn3cnc([N+](=O)[O-])n3)n2CC)cc1
    i, 1.1, 105, -18, 93, -4, /
14	O=C(O)/C=C\c1ccccc1Oc1cccc(Cl)c1
    i, 1, 112, 18, 217, -3, /
15	CN(Cc1ccccn1)C(=O)CC1C(=O)NCCN1Cc1cccc(Oc2ccccc2)c1 (configuration not stated)
    i, 0.91, 103, -65, 29, -4, /
16	COC(=O)c1c(C)[nH]c(C(=O)C(C)OC(=O)C2=NNC(=O)CC2)c1C (configuration not stated)
    i, 0.88, 99, /, /, /, /
17	Cc1ccc(OCCN2CCN(C(=O)CCC(=O)Nc3nnc(C(C)C)s3)CC2)cc1
    i, 1, 95, 40, 81, 4, -3.6
18	CN(c1ccc(OCC(=O)OCC(=O)Nc2c(F)c(F)c(F)c(F)c2F)cc1)S(=O)(=O)c1ccc(F)cc1
    i, 1, 147, -19, 75, -1, -1.3
19	CCOc1ccccc1C1CC(c2cccc(NS(C)(=O)=O)c2)=NN1C(=O)c1ccccc1 (configuration not stated)
    i, 0.81, 101, -6, 140, 0, 1.2
20	C=CCS/C(N)=N\N=C\c1cc(Br)cc([N+](=O)[O-])c1O
    i, 1.2, 101, /, /, /, /
21	COc1ccccc1N1CCN(C(=O)c2ccc3nc[nH]c3c2)CC1
    i, 1.1, 104, -19, 178, 6, -0.1
22	COc1ccc(CC(=O)c2ccc(O)cc2O)cc1
    i, 0.89, 101, /, /, /, /
23	COc1ccccc1NS(=O)(=O)c1cc(NC(=O)Nc2cccc(C)c2)ccc1N1CCCCC1
    i, 0.76, 102, 19, 140, -3, -0.4
24	COc1ccccc1C1=NOC(CN2C(=O)c3ccccc3S2(=O)=O)C1 (configuration not stated)
    i, 1.1, 94, /, /, /, /
25	c1ccc2c(C3=NNC(=NC4CC4)SC3)c[nH]c2c1
    i, 1.1, 109, -8, 45, -12, -2.0
26	CS(=O)(=O)n1nc(-c2cccnc2)nc1NCc1ccccc1
    i, 1.2, 101, 50, 111, -4, /
27	Cc1cc(Cl)ccc1Oc1ccccc1C(=O)CC#N
    i, 0.94, 102, 18, 112, -1, /
28	O=C(NC1CCCCC1)C(c1ccc(O)c(O)c1)N(C(=O)Cn1nnc2ccccc21)c1cccc(O)c1 (configuration not stated)
    i, 0.9, 101, /, /, 3, /
29	CCN1C(=O)CSc2ccc(C(=O)NCc3ccco3)cc21
    i, 0.9, 107, /, /, 4, -0.4
30	[O-]/C(=C(\C(=S)NCCN1CCOCC1)[n+]1ccccc1)c1ccc(Cl)s1
    i, 0.97, 100, /, /, -2, /
31	CC(C(=O)N1CCOCC1)N1C(=O)c2ccccc2C1=O (configuration not stated)
    i, 0.82, 102, -282, 105, -5, -2.8
32	CCOc1ccc(N(CC(=O)N/N=C/c2cc(Br)c(C)o2)S(C)(=O)=O)cc1
    i, 1, 103, 38, 120, -7, /
33	Cc1ccc(NC2=CC(=O)CC(c3ccc(Cl)cc3)C2)cc1 (configuration not stated)
    i, 0.99, 99, /, /, 5, 1.8
34	CCN1CCN(CC(=O)Nc2ccc(Cl)c(S(=O)(=O)N(C)C)c2)CC1
    i, 0.89, 102, 5, 112, -5, /
35	O=C1CC(C(=O)Nc2nccs2)C(c2ccccc2)O1 (configuration not stated)
    i, 0.84, 111, /, /, /, /
36	COCCN(C(C)=O)c1nnc(-c2ccccn2)s1
    i, 0.8, 46, /, /, -1, 0.8
37	CNC(=S)N(Cc1cc2cc(OC)c(OC)cc2[nH]c1=O)C1CCCC1
    i, 0.9, 90, /, /, 0, /
38	CCC(C)(C)NC(=O)COc1ccc(OCc2ccccc2)cc1
    i, 0.97, 110, 0, 91, -1, /
39	Cc1[nH]c2ccccc2c(=O)c1SC(F)(F)C(F)C(F)(F)F (configuration not stated)
    i, 0.92, 99, -53, 136, -2, 0.7
40	CCN1C(=O)C(CC(=O)Nc2ccc(F)cc2)N(Cc2ccc3c(c2)OCO3)C1=S (configuration not stated)
    i, 0.96, 98, /, /, -5, /
41	Cc1cc(C(=O)N2CCN(c3ccc(C(F)(F)F)cn3)CC2)c(C)o1
    i, 0.94, 102, /, /, /, /
42	O=C(CCN1C(=O)C2C3CC(C(Br)C3Br)C2C1=O)OCC(=O)c1ccccc1 (configuration not stated)
    i, 0.93, 101, 24, 119, 4, 0.4
43	COc1ccc(Nc2nc(N)nc(CN3CCOCC3)n2)cc1
    i, 0.81, 95, /, /, -4, -1.9
44	COc1cccc2c1OC1(C)CC2NC(=O)N1c1cccc(C(=O)N2CCN(c3ccccc3)CC2)c1 (configuration not stated)
    i, 1, 95, 15, 121, -8, /
45	Cc1cc(OCC(=O)NC(C)c2ccccc2)ccc1[N+](=O)[O-] (configuration not stated)
    i, 1.2, 98, 45, 63, -7, /
46	CCn1c(SCc2nc3sc(C(=O)O)c(C)c3c(=O)[nH]2)nc2ccccc21
    /, /, 99, 30, 84, -5, -3.5
47	Cc1nnc(SCCC(=O)Nc2nc(-c3ccccc3)ns2)s1
    i, 1, 84, 31, 153, 0, 0.0
48	O=C(CN1CCN(S(=O)(=O)c2ccc(Cl)s2)CC1)N1CCOCC1
    i, 1.3, 108, /, /, /, /
49	Cc1cc(O)c(C(C)C)cc1NC(=O)Nc1cccc2ccccc12
    i, 0.84, 143, /, /, /, /
50	COc1ccc2c(c1)c(=O)oc1cc(OCC(=O)NC3CC3)ccc12
    i, 0.92, 71, 13, 111, 1, 0.4
51	N#CC1=C(S)N(c2ccccc2)C(c2ccc(-c3cc(Cl)ccc3Cl)o2)NC1=O (configuration not stated)
    i, 0.93, 104, -15, 87, -7, -0.7
52	Cc1cccc(Cn2cnc3ccccc32)c1
    i, 1, 94, 47, 76, 0, -1.2
53	COc1ccc(CCNC(=O)N2c3ccccc3Sc3ccccc32)cc1
    i, 0.95, /, 22, 42, 11, 1.2
54	CC(=O)c1ccc(NC(=O)c2cnsn2)cc1
    i, 0.99, 103, /, /, -4, /
55	COc1cc(SC)ccc1C(=O)Nc1ncc(C)s1
    i, 0.88, 100, 7, 118, 4, /
56	O=C(/C=C/c1ccccn1)c1cc(Br)ccc1O
    i, 0.97, 102, /, /, /, /
57	COc1ccccc1C1=NOC(Cn2c(=O)c3c(ncn3C)n(C)c2=O)C1 (configuration not stated)
    i, 0.88, 99, /, /, 15, -1.4
58	Cc1ccc(C)c(NC(=O)c2ccccc2NS(=O)(=O)c2cc([N+](=O)[O-])ccc2C)c1
    i, 0.92, 188*[activator], 19, 65, 0, -1.8
59	COc1ccc(C)cc1NC(=S)Nc1ccccc1SC
    i, 0.89, 110, /, /, -9, /
60	O=C(Nc1ccccc1)/C(=C1\CCCN1)[N+](=O)[O-]
    i, 1.1, 112, 10, 116, 0, /

Next part:
Values run as follows: HSV replic up, HSV replic up primary fold, RGS16-Gao, Insulin prom inh, Insulin prom inh cell count, PKD1 inh, GALR2 agonist
61	COc1ccc(C2CC(=O)N3CN(c4ccc(C)c(Cl)c4)CSC3=C2C#N)cc1 (configuration not stated)
    i, 0.87, 97, /, /, -3, 1.3
62	NS(=O)(=O)c1ccc(NC(=O)CCc2ccccc2)cc1
    i, 0.74, 99, 44, 108, 10, -1.2
63	Cc1cccc(C)c1NC(=O)CSc1cc(C(=O)c2nccn2C)c2ccccc2n1
    i, 1, 111, 12, 79, 1, -0.9
64	O=C(/C=C/c1ccco1)Nc1ccc2nc3n(c(=O)c2c1)CCCC3
    i, 1, 109, /, /, -1, /
65	CCCCNC(=O)C1CC(=O)N(CCC(C)C)C1 (configuration not stated)
    i, 1, 102, /, /, -1, -2.2
66	N#C/C(=C\c1cccc(Oc2ccc(C(F)(F)F)cc2[N+](=O)[O-])c1)c1nc2ccccc2[nH]1
    i, 0.91, 94, 25, 102, -5, -0.7
67	COc1ccc(C)cc1NC(=O)NC(C)c1ccncc1 (configuration not stated)
    i, 0.87, 98, -5, 91, 15, /
68	CCOC(=O)C(C)n1cnc2c(cnn2-c2ccc(Cl)cc2)c1=O (configuration not stated)
    i, 1.1, 98, 0, 91, -14, -0.4
69	Cn1c(C(=O)N2CCN(C(=O)c3ccco3)CC2)cc2c(=O)n3ccccc3nc21
    i, 0.91, 96, /, /, -6, 1.2
70	CCOC(=O)c1sc(NS(=O)(=O)c2ccccc2)nc1C
    i, 1.3, 99, 0, 125, 2, -0.5
71	CCCC(=O)N(c1ccc(OC)cc1)C1C=CS(=O)(=O)C1 (configuration not stated)
    i, 0.78, 105, -23, 104, 2, 0.7
72	COc1ccc(C2/C=C\CN(S(=O)(=O)/C=C/c3ccccc3)CC(=O)N2Cc2ccc(F)cc2)cc1 (configuration not stated)
    i, 0.94, 98, /, /, /, /
73	Cc1nn(Cc2ccccc2)c(C)c1CCC(=O)O
    i, 1, 76, -42, 133, 3, -4.8
74	Cc1c(C(=O)Nc2nc3ccccc3[nH]2)oc2ccc(Br)cc12
    i, 0.94, 102, /, /, -3, 1.2
75	CCOc1ccc(CCNC(=O)COC(=O)c2cc(OC)cc(OC)c2)cc1OCC
    i, 0.91, 101, /, /, 0, /
